Screening data deposited in PubChem by ICCB-Longwood Screening Facility, Harvard Medical School.
Choline anaer gr: blocks anaerobic gram-negative growth on choline; Gram-negative bacterium anaerobic choline minimal medium, absorbance growth; hits give low values; many inactives read as strong as hits in the columns shown; calls only; 0.2% of 55,000 active;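 active means growth z-score on choline under -2 at 7 or 20 h with little or no fall on glycerol, limits in tiers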;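 further: stock transfer was 300 nL into about 50 µL; the organism is E. coli; final concentration not given here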
Choline anaer gr early: second read-out of Choline anaer gr, no call of its own (marks repeat the call); z-score; measured here: choline growth z-score, timepoint 1;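 score of optical density at 7 h as mean of two plates; lower means less growth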
Active calls of the source: *; i = inactive; & = joins results of further samples.

Screens in order: Choline anaer gr	Choline anaer gr early
CCN(CC)C(=O)CCc1nc(-c2cc3ccccc3[nH]c2=O)no1
 : i	0.05
Cc1ccc(S(=O)(=O)N(Cc2c(F)cccc2Cl)c2nc3nc(C)cc(C)n3n2)cc1
 : i	-0.96
COC(=O)c1sccc1NC(=O)N1CCCC1c1ccccc1Cl (stereo unspecified)
 : i	-1.9
COc1ccc(OC)c(CNCc2c(C(=O)O)c(C)n(-c3ccccc3)c2C)c1
 : i	0.25
Cc1cc(C2CCCN2Cc2cn(C)nc2C)no1 (stereo unspecified)
 : i	-0.35
O=C(CCc1nc2sc3c(c2c(=O)[nH]1)CCCCC3)N1CCN(Cc2ccc3c(c2)OCO3)CC1
 : i	-1.5
COc1ccc(-c2nc(C(=O)N3CCCC3)nn2-c2ccc(Cl)cc2)cc1
 : i	-1.1
Cc1ccc(C(=O)NCC(c2ccccc2)c2c[nH]c3ccccc23)cc1 (stereo unspecified)
 : i	1.1
COc1cc(OC)c(NC(=O)Cn2c(SCc3ccc(F)cc3)nc3cccnc32)cc1Cl
 : i	-1.3
CN(C)S(=O)(=O)N(CC(=O)NC1CCCCC1)c1ccc(F)cc1
 : i	-1.2
O=C(NCCc1nc(-c2ccc(Cl)cc2)n[nH]1)c1cccc(F)c1
 : i	-1.5
CCn1cnc(S(=O)(=O)N2CCCC(C(=O)N3CCN(c4ncccn4)CC3)C2)c1 (stereo unspecified)
 : i	-0.55
CS(=O)(=O)c1ccc([C@@H](O)[C@@H](CO)NC(=O)C(Cl)Cl)cc1
 : i	-3.1
COc1ccc(-c2cc(=O)c3c(OC)c(OC)c(OC)c(OC)c3o2)cc1
 : i	0.17
COc1ccc(CNC(=O)C2(C)Cn3nc(C)cc3C(=O)N2c2ccc(OC)cc2)cc1 (stereo unspecified)
 : i	-0.07
O=S(=O)(O)CCCS(=O)(=O)O
 : i	0.06
CCC1c2cccn2-c2sc3c(c2CN1C(=O)Nc1cccc2c1CCCC2)CCN(C)C3 (stereo unspecified)
 : i	0.84
CCOC(=O)c1cc(-c2ccc(OC)c(S(=O)(=O)NCC3CCCO3)c2)on1 (stereo unspecified)
 : i	0.75
O=C(Cn1cccc1-c1nc(-c2ccccc2)cs1)NCc1cccnc1
 : i	-0.44
Cc1cc2c(cc1S(=O)(=O)N1CCCC(C(=O)N3CCc4ccccc43)C1)OCC(=O)N2 (stereo unspecified)
 : i	-0.75
CCOc1ccc(N2CCCCn3c2nc2c3c(=O)[nH]c(=O)n2C)cc1
 : i	-1.9
CC1CCCCN1C(=O)Nc1ccc2c(c1)N(C)C(=O)c1ccccc1S2 (stereo unspecified)
 : i	-0.42
Cc1ccc(CN2CCN(C3CCN(C(=O)Nc4cc(C)ccc4C)CC3)C(=O)C2=O)cc1
 : i	0.01
CCOc1ccc(NC(=O)N(C)CCc2c(C)nn(C)c2C)cc1
 : i	-1.7
O=C(NCc1ccc2c(c1)OCO2)c1ccc(-c2cc(N3CCCC3)ncn2)cc1
 : i	-0.15
CN(C)CCNC(=O)c1cc2n(n1)CCCN(Cc1cccc(F)c1)C2=O
 : i	0.05
Cc1[nH]c(C)c(S(=O)(=O)N2CCC3(CC2)OCCO3)c1-c1nc(C2CC2)no1
 : i	-0.35
CC(=O)N(Cc1ccccc1C)c1nc2ccccc2n(CC(=O)Nc2c(F)cccc2F)c1=O
 : i	0.07
C#CCSc1nn2c(=O)c(C)nnc2s1
 : i	-2.5
C[C@H]1[C@H](NC(=O)/C(=N\OC(C)(C)C(=O)O)c2csc(N)n2)C(=O)N1S(=O)(=O)O
 : i	-0.12&0.41
O=c1c2cc3c(cc2nc(SCc2nc(-c4ccc(F)cc4)no2)n1C1CCCC1)OCO3
 : i	0.25
COc1ccc2c(c1)cc(C(=O)Nc1ccc(N3CCOCC3)c(Br)c1)n2C
 : i	1.1
COc1ccc(-c2csc(-c3cc4c([nH]c3=O)CC(c3ccccc3)CC4=O)n2)cc1 (stereo unspecified)
 : i	-0.72
O=C(NCC1CCCO1)c1ccc2c(c1)N(Cc1ccccc1)C(=O)CS2=O (stereo unspecified)
 : i	0.1
CCCCOc1ccc(C2Nc3ccccc3NC3=C2C(=O)CC(C)(C)C3)cc1 (stereo unspecified)
 : i	-0.87
CNC(=O)c1ccc(-c2nc3cc(NS(=O)(=O)c4ccc(F)cc4F)ccc3n2C)cc1
 : i	-0.07
CCCCC[C@H](O)/C=C/C=C\CCCCCCCC(=O)O
 : i	0.5
Cc1oc(-c2ccc(Cl)cc2)nc1Cn1nc(C)c2c(C)onc2c1=O
 : i	-0.26
Cc1cccc(NC(=O)CCS(=O)(=O)c2ccc3c(c2)NC(=O)CS3)c1C
 : i	0.54
CCCN(CCC)C(=O)CN1C(=O)N(c2ccc(OCC)cc2)C2CS(=O)(=O)CC21 (stereo unspecified)
 : i	0.82
O=C(C1CCCN(S(=O)(=O)Cc2ccc(Cl)cc2)C1)N1CCN(Cc2ccc3c(c2)OCO3)CC1 (stereo unspecified)
 : i	0.95
C=CCSc1c(CC(C)C)cnc2c1c(=O)n(C)c(=O)n2C
 : i	0.72
Cc1ccccc1NC(=O)C1CCCN(C(=O)c2nn(C)c3c2CN(C(=O)CC2CCCC2)CC3)C1 (stereo unspecified)
 : i	0.36
Cc1nnc(N2CCC(C(=O)NCc3ccccn3)CC2)c2nn(-c3ccc(Cl)cc3)c(C)c12
 : i	-1.1
Cc1onc(-c2cccc(Br)c2)c1C(=O)Nc1ccc2c(c1)OCO2
 : i	-0.68
Cc1ccc(S(=O)(=O)c2ncsc2SCC(=O)NCCN2CCOCC2)cc1
 : i	-0.08
CCOC(=O)c1c(NC(=O)N2CC(CC)Oc3ccccc32)sc2c1CCCC2 (stereo unspecified)
 : i	1.3
CCc1ccc(-c2ccc(=O)[nH]n2)cc1S(=O)(=O)N1CCN(C)CC1
 : i	-1.1
CCOc1ccc(-c2nn3c(=O)c(NC(=O)c4ccc(C)cc4)cnc3o2)cc1
 : i	-0.29
O=C(Cn1c(=O)nc(-c2ccccc2)c2ccccc21)N1CCN(c2ccccc2F)CC1
 : i	0.41
CCS(=O)(=O)N1CCN(c2nc(C)cc(N3CCOCC3)n2)CC1
 : i	0.04
Cc1cc2nc(CSc3nnc(NC(=O)Nc4ccc(F)cc4)s3)cc(=O)n2o1
 : i	-0.15
Cc1ccc(CCNC(=O)c2c[nH]n3c(=O)c(Cc4cc(C)ccc4C)c(C)nc23)cc1
 : i	-0.2
O=C(CCn1cnc2onc(-c3cccc(F)c3)c2c1=O)NCc1cccc(Cl)c1
 : i	-0.9
COc1ccc2cc3cc(C(=O)N4CCC(Cc5ccccc5)CC4)oc3nc2c1
 : i	1.2
COC(=O)c1ccccc1NC(=O)CSc1ncc(S(=O)(=O)c2ccc(Br)cc2)c(=O)[nH]1
 : i	0.15
COc1cc(CNCCSc2nnnn2C)ccc1OCc1cccc(Cl)c1
 : i	0.23
CCc1c(C)nc2ncnn2c1Nc1ccc(F)c(F)c1
 : i	0.17
COc1ccc(C2CC(=O)N(c3ccc(F)cc3)C(=O)C2)cc1OC
 : i	-0.65
Cn1cc(C(=O)NCCC2=CCCCC2)c2[nH]c(=O)n(-c3ccccc3)c(=O)c21
 : i	0.68

Following part:
Screens in order: Choline anaer gr	Choline anaer gr early
O=C(O)c1cccc(Nc2c(-c3cc(Br)ccc3O)nc3cnccn23)c1
 : i	0.56
CC(C)c1ccc(Nc2c(-c3ccc(N(C)C)cc3)nc3nc[nH]n23)cc1
 : i	1.2
NC(CO)C(=O)NNCc1ccc(O)c(O)c1O (stereo unspecified)
 : i	-1&0.82&-0.23
Cc1nn(S(=O)(=O)c2ccc(Cl)cc2)c(C)c1S(=O)(=O)N1CCCC(C)C1 (stereo unspecified)
 : i	-0.83
Cc1ccc(C(=O)N2CCN(Cc3cc(=O)n4nc(-c5ccccc5)sc4n3)CC2)cc1
 : i	0.29
NC(=O)c1nc(Nc2ccccc2)sc1NC(=O)c1cc2cc(Cl)ccc2[nH]1
 : i	-1
O=C(Cn1cccc1-c1nc(-c2ccc(Cl)cc2)cs1)N1CCc2ccccc21
 : i	-0.28
O=C1CCCc2c1cc(C(=O)NCc1cccnc1)c(=O)n2-c1ccc(F)cc1
 : i	-0.81
CN(CCCNc1nn2nnnc2c2ccccc12)Cc1ccccc1
 : i	-1.5
CCOC(=O)c1c(C)[nH]c(C)c1S(=O)(=O)N1CCC(C(=O)Nc2ccc(F)cc2F)CC1
 : i	0.04
COc1ccccc1-c1noc(CCCn2c(=O)[nH]c3cc4c(cc3c2=O)OCO4)n1
 : i	-0.53
Cc1c(C(=O)N2CC=C(c3ccccc3)CC2)sc2nc[nH]c(=O)c12
 : i	-0.52
O=C(CCCc1nnc2c(=O)n(-c3cccc(F)c3)ccn12)NCCc1c[nH]c2ccccc12
 : i	-0.3
CCOC(=O)c1[nH]c(C)c(CN(Cc2ccc(C)cc2)C(=O)Nc2cc(OC)ccc2OC)c1C
 : i	0.93
Cc1onc(-c2ccc(Br)cc2)c1C(=O)NCc1cccnc1
 : i	-0.57
Cc1ccc(C2=Nc3cc(C)c(C)cc3NC(=O)C2)cc1
 : i	0.55
Cc1ccc(F)cc1S(=O)(=O)Nc1cccc(-c2ccc3ccccc3n2)c1
 : i	0.15
CCC(C)NS(=O)(=O)c1cc2c3c(c1)CCN3C(=O)CC2 (stereo unspecified)
 : i	-0.26
Cc1cc(N2CCCC2)nc2ccc(NC(=O)CC3CCCC3)cc12
 : i	-0.74
CCCc1cc(=O)[nH]c(-n2nc(C)cc2NC(=O)C2CC(=O)N(c3ccc(OC)cc3)C2)n1 (stereo unspecified)
 : i	-1.1

Continued, starting with the last three of the part before.
Screens in order: Choline anaer gr	Choline anaer gr early
CCC(C)NS(=O)(=O)c1cc2c3c(c1)CCN3C(=O)CC2 (stereo unspecified)
 : i	-0.26
Cc1cc(N2CCCC2)nc2ccc(NC(=O)CC3CCCC3)cc12
 : i	-0.74
CCCc1cc(=O)[nH]c(-n2nc(C)cc2NC(=O)C2CC(=O)N(c3ccc(OC)cc3)C2)n1 (stereo unspecified)
 : i	-1.1
Cc1nc(-n2[nH]c(C)c(CCC(C)C)c2=O)sc1C(=O)N1CCN(c2ccccc2)CC1
 : i	-0.38
CCCCCCNC(=O)Nc1ccc(S(=O)(=O)Nc2ccc(CCNC[C@H](O)COc3ccc(O)cc3)cc2)cc1
 : i	-0.12
CCS(=O)(=O)N1CCCC(c2nnc(C(=O)Nc3ccc(F)cc3)s2)C1 (stereo unspecified)
 : i	-0.86
Cc1ccc2[nH]cc(C(O)CN3CCC(Cc4ccccc4)CC3)c2c1 (stereo unspecified)
 : i	-0.36
Cc1c(C(=O)NCCC2=CCCCC2)sc2nc3n(c(=O)c12)CCCCC3
 : i	-0.57
Cc1ccc(-n2sc(=O)n(Cc3ccc(F)cc3)c2=O)cc1
 : i	0.23
Cc1cc(=O)n2[nH]c(CN(c3ccccc3)S(=O)(=O)c3ccccc3)nc2n1
 : i	-0.65
O=C(Nc1ccc(F)cc1)C1CCCN1S(=O)(=O)c1cccc2cccnc12 (stereo unspecified)
 : i	-0.08
O=C1COc2ccc(S(=O)(=O)N3CCN(C(=O)c4ccccn4)CC3)cc2N1
 : i	0.01
O=C(CCC(=O)N1CCOc2ccc(Cl)cc21)N1CCN(c2ccccn2)CC1
 : i	0.26
CCOc1cccc(CN2C(=O)c3ccccc3CC2(C)C(=O)NCc2ccccc2C)c1 (stereo unspecified)
 : i	0.05
CC(C)c1ccc(S(=O)(=O)N2CCc3nc(N4CCCCC4)ncc3C2)cc1
 : i	0.15
CCCCN(C)S(=O)(=O)c1cc(-c2nnc(C3CCCC3)o2)co1
 : i	-0.27
O=C(c1cccc(Br)c1)N1CCN(C(=O)c2cc3ccccc3[nH]2)CC1
 : i	0.08
Cc1ccc(Cl)cc1NC(=O)CCc1nc(CSc2nc3ccccc3s2)no1
 : i	0.36
Cc1ccc(CNC(=O)C2CCN(c3cncnc3N3CCOCC3)CC2)o1
 : i	0.26
CCc1nnc(-c2sccc2C)o1
 : i	-1.3
Cc1ccc(Cn2cnc3oc(C)c(C)c3c2=O)cc1
 : i	-0.06
CCCn1c(=O)c2ccc(C(=O)NC(C)C)cc2n2c(SCC(=O)c3ccc(OC)cc3)nnc12
 : i	-1.4
O=C(c1cc2c(s1)-c1ccccc1S(=O)(=O)C2)N1CCc2ccccc2C1
 : i	0.38

An excerpt from above in order of length of the SMILES, smallest number first.
Screens in order: Choline anaer gr	Choline anaer gr early
O=C(CCC(=O)N1CCOc2ccc(Cl)cc21)N1CCN(c2ccccn2)CC1
 : i	0.26
Cn1cc(C(=O)NCCC2=CCCCC2)c2[nH]c(=O)n(-c3ccccc3)c(=O)c21
 : i	0.68
CCCCCCNC(=O)Nc1ccc(S(=O)(=O)Nc2ccc(CCNC[C@H](O)COc3ccc(O)cc3)cc2)cc1
 : i	-0.12

Additional structures
Screens in order: Choline anaer gr	Choline anaer gr early
O=S(=O)(c1ccc(-c2nnc(C3CCC3)o2)o1)N1CCN(c2ccc(F)cc2)CC1
 : i	-0.77
COc1ccc(N2CC(NC(=O)C3CC3)CC2=O)cc1OC (stereo unspecified)
 : i	0.36
CCOC(=O)c1nc(Nc2cc(OCC)ccc2OCC)c2c(C)noc2n1
 : i	-0.26
CCc1ccc(-c2[nH]ncc2CN2CCCC2c2cc(C(C)C)no2)cc1 (stereo unspecified)
 : i	1.6
Cc1ccc(-c2c(C(F)(F)F)nn3c(NCc4ccccc4)cc(C)nc23)cc1
 : i	1.4
CC1CCN(CCNC(=O)c2nc(-c3ccc(S(=O)(=O)N4CCOCC4)cc3)no2)CC1
 : i	-1.4
Cc1n[nH]c(=O)nc1SCC(=O)NC1CCCC1
 : i	-7.4
Cc1ccc(NC(=O)Nc2ccc(SCc3cc(=O)n4c(ncn4C(C)C)n3)cc2)cc1Cl
 : i	0.55
Cc1ccc(-c2[nH]nc3c2C(C(=O)c2ccc(Br)cc2)CC(=O)N3)cc1 (stereo unspecified)
 : i	0.48

A portion of the library; count on the stated rates, not on these rows.
